Choline anaer gr = blocks anaerobic gram-negative growth on choline. Gram-negative bacterium anaerobic choline minimal medium, absorbance growth; hits give low values; many inactives read as strong as hits in the columns shown. calls only. 0.2% of 55,000 active;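 active means growth z-score on choline under -2 at 7 or 20 h with little or no fall on glycerol, limits in tiers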;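 further: stock transfer was 300 nL into about 50 µL; the organism is E. coli; final concentration not given here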
Choline anaer gr early = also measured in Choline anaer gr; calls as there; z-score; measured here: choline growth z-score, timepoint 1;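 score of optical density at 7 h as mean of two plates; lower means less growth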
Active calls of the source: *; i = inactive.

SMILES	Choline anaer gr	Choline anaer gr early
COc1cccc(-c2nc3ccccc3c3nnc(SCc4cccnc4)n23)c1	i	-0.53
CC(=O)Nc1ccc(Sc2nc3ccc(C)cc3n3nnnc23)cc1	i	0.08
CN1CCc2c(sc3c2CN(C(=O)NCc2ccc(F)cc2)C(c2ccc(F)cc2)c2cccn2-3)C1 (stereo not given)	i	0.21
CCC(=O)Nc1ccc(S(=O)(=O)NCc2cc(C)n(-c3ccc(F)cc3)c2C)cc1	i	-1.31
CC(C)Oc1cc(O)c2c(=O)cc(-c3ccccc3)oc2c1	i	1.1
CC(C)c1cc(C(=O)Nc2ccc(N(C)C)cc2)nn1C1CCS(=O)(=O)C1 (stereo not given)	i	-0.04
CCc1nc(-c2csc(S(=O)(=O)Nc3cccc(Br)c3)c2)no1	i	1.23
CCOCCCNC(=O)C1c2c(n(C)c3ccccc23)SCC(=O)N1c1ccccc1F (stereo not given)	i	-0.49
COc1ccc(Cl)cc1-n1nnc(C(=O)O)c1C(=O)O	i	-1.1
O=C(Nc1ccc(Cl)cc1F)c1cc(-c2ccncc2)n[nH]1	i	-0.23
COc1ccc(CN2CCCN(CC(=O)Nc3ccc4c(c3)OCO4)S2(=O)=O)cc1	i	-0.45
CCc1c(C)nc(-n2nc(C)cc2NC(=O)c2ccccc2Br)[nH]c1=O	i	-1.73
O=C1CCCc2cc(S(=O)(=O)N3CCCC(C(=O)NCc4ccccc4Cl)C3)ccc2N1 (stereo not given)	i	1.35
CC(=O)Nc1c(C)nn(-c2ccc(Cl)cc2)c1N1CCC(C(=O)NCC2CCCO2)CC1 (stereo not given)	i	-0.02
COc1ccc(-c2cc3n(C)c(C)c(CCC(=O)NC4CCC(C)CC4)c(=O)n3n2)cc1 (stereo not given)	i	-0.71
CCN1CCCC1CNC(=O)c1ccc2nnc(C)n2c1 (stereo not given)	i	-0.05
O=S(=O)(c1cc(-c2noc(C3CCC3)n2)cs1)N1CCN(c2ccc(F)cc2)CC1	i	1.37
O=C(c1ccc2c(c1)OCO2)N1CCC(c2nc(-c3ccc(S(=O)(=O)N4CCCC4)cc3)no2)CC1	i	-0.67
CC(C)NS(=O)(=O)c1ccc2c(c1)C(C)(C)CN2CC(=O)N1CCCC1	i	0.58
COc1ccc(NS(=O)(=O)c2cc(-c3cc(C(F)(F)F)on3)sc2C)c(OC)c1	i	0.81
c1ccc(-c2nn3c(-c4ccc5ccccc5n4)nnc3s2)cc1	i	-0.41
CCc1cc(-c2csc(S(=O)(=O)N3CCN(C4CCCCC4)CC3)c2)on1	i	0.6
O=C(O)c1cc(N2CCOCC2)ccc1NS(=O)(=O)c1ccc(F)cc1	i	0.37
CCCCC(=O)N1CCN(c2nc3ccccc3cc2-c2noc(C)n2)CC1	i	-0.86
CCC(CO)NCc1ccc(-c2ccc(Cl)cc2)o1 (stereo not given)	i	-1.06
CC(C)NC(=O)CCn1c(=O)c2ccccc2n2c(=O)n(Cc3ccc(Cl)cc3)nc12	i	0.42
O=C(Nc1cccc(-c2ccno2)c1)c1cc(-c2cccnc2)on1	i	-0.34
CCn1c(C)ccc(-c2noc(CCC(=O)Nc3nnc(COC)s3)n2)c1=O	i	-0.44
Cc1ccc(CC(=O)NCC(=O)Nc2nc3ccccc3[nH]2)cc1	i	0.84
Cc1ccc(NC(=O)C2CCN(S(=O)(=O)c3ccc4c(c3)CCCC(=O)N4)CC2)cc1N(C)C	i	-0.3
CC1CC(=O)N(CC(=O)N2CCc3ccccc32)c2cc(S(=O)(=O)N3CCCCC3)ccc2S1 (stereo not given)	i	0.28
Cc1ccsc1C(=O)N1CCCN(Cc2noc(-c3ccccc3)n2)CC1	i	-0.46
Cc1onc2c(=O)n(CC(=O)N3CCN(c4ccccn4)CC3)nc(-c3ccc(Cl)cc3)c12	i	-0.05
COC(=O)Nc1nc2ccc(SC(C)C)cc2[nH]1	i	0.63
CCOc1ccc(-c2nnc(SCC(N)=O)o2)cc1	i	-0.47
O=C(C1=C(O)C(=O)N(CCCn2ccnc2)C1c1cccnc1)c1cc2ccccc2o1 (stereo not given)	i	-0.29
O=C(c1coc(-c2ccccc2)n1)N1CCN(Cc2noc(-c3ccccc3)n2)CC1	i	0.4
CCOC(=O)c1noc2nc(C)n(CC(=O)Nc3ccc(F)c(Cl)c3)c(=O)c12	i	1.03
CC(C)Cn1nc2ccc(S(=O)(=O)N3CCC(C)CC3)cn2c1=O	i	-0.26
CCCCC[C@H](O)/C=C/[C@@H]1[C@@H](C/C=C\CCCCCC(=O)O)[C@@H](O)C[C@H]1O	i	-1.84
CCCC(C)NC(=O)c1cnc2sccn2c1=O (stereo not given)	i	-0.8
CCN(CC)CCCNC(=O)C1CCN(C2=NS(=O)(=O)C(c3ccc(OC)cc3)=C2C)CC1	i	-0.25
Cc1cc(=O)n2[nH]c(CN(C(=O)COc3ccccc3)c3ccccc3)nc2n1	i	-0.08
COc1ccccc1N1C(=O)N(c2ccc(F)cc2)C2CS(=O)(=O)CC21 (stereo not given)	i	-0.04
CSc1nnc2n(Cc3cccs3)c(=O)c3sccc3n12	i	-0.37
Cc1cc(C)cc(NC(=O)CSc2ccnc(=O)[nH]2)c1	i	-0.34
C=Cc1ccc(Cn2c(=O)n3nc(CCn4nc(C)cc4C)nc3c3cc(OC)c(OC)cc32)cc1	i	1.57
Cn1c(=O)c(-c2noc(CCC(=O)N3CCOCC3)n2)nn(-c2ccccc2)c1=O	i	-0.33
CCN(CC)S(=O)(=O)c1ccc2c(c1)cc(C(=O)N1CCN(c3cccc(C)c3)C(C)C1)n2C (stereo not given)	i	1.9
COc1ccc(NC(=O)CCc2c(C)nc3nc(CN)nn3c2C)c(OC)c1	i	0.07
O=S(=O)(c1ccccc1)N1CCCN(c2nc3cc(Cl)ccc3n3cccc23)CC1	i	-0.39
COc1ccccc1CNC(=O)C1CCCN1S(=O)(=O)c1cc2c(cc1C)NC(=O)C(C)O2 (stereo not given)	i	-1.33
CC(=O)N1N=C(c2n[nH]c3c2CCCC3)OC1c1c(C)nn(-c2ccccc2)c1C (stereo not given)	i	-0.81
CCOc1cccc(C2Nc3c(C)cc(C)cc3[C@H]3OCCC[C@@H]23)c1OC (stereo not given in full)	i	0.14
CC(=O)N(Cc1ccccc1)c1nc2ccccc2n(CC(=O)Nc2cccc(C)c2C)c1=O	i	0.08
Cc1cccc(C(=O)N2CCc3cc(CNS(C)(=O)=O)ccc32)c1	i	-0.11
Cc1cc(C)c(Nc2nnc(C)c(=O)[nH]2)c(C)c1	i	-1.23
Cc1cc2nc(N3CCN(C(=O)c4ccc(Cl)cc4)CC3)c(C(F)(F)F)nc2cc1C	i	1.13
COc1ccccc1N1CCN(c2ccc(=S)[nH]n2)CC1	i	0.01
Fc1cccc(-c2nnn3c2nc(NCC2CCCO2)c2cc(Cl)ccc23)c1 (stereo not given)	i	1.23

Filtered by structure: the compounds so far with bromine.
SMILES	Choline anaer gr	Choline anaer gr early
CCc1nc(-c2csc(S(=O)(=O)Nc3cccc(Br)c3)c2)no1	i	1.23
CCc1c(C)nc(-n2nc(C)cc2NC(=O)c2ccccc2Br)[nH]c1=O	i	-1.73

More structures follow:
SMILES	Choline anaer gr	Choline anaer gr early
Cn1c(N2CCCC(C(=O)Nc3nccs3)C2)cc(=O)n(C)c1=O (stereo not given)	i	-0.94
Cc1cccc(NC(=O)c2ccc(=O)n(Cc3ccc(F)cc3)c2)c1	i	-0.21
CCc1noc2nc(CCC(=O)NC(C)CC)nc(N3CCCCC3)c12 (stereo not given)	i	-1.71
CC1CCCN(c2ncc(C(=O)O)cc2NS(=O)(=O)c2ccc(Br)cc2)C1 (stereo not given)	i	-1.66
O=C(c1ccc(S(=O)(=O)c2ccc(Br)cc2)nc1)N1CCN(c2ccccc2)CC1	i	1.19
Cc1ccc(Cc2c(C)nc3c(C(=O)NCc4ccc5c(c4)OCO5)cnn3c2C)cc1	i	0.25
CCCN(CCc1cccs1)C1CCc2c(O)cccc2C1 (stereo not given)	i	0.05
CCCCSc1nnc2n1CCN2c1ccccc1	i	-0.11
COc1ccc(C2CC(=O)c3cc(-c4nc(-c5ccc(Cl)cc5)cs4)c(=O)[nH]c3C2)cc1 (stereo not given)	i	-0.05
COC(=O)c1nnc2c(-c3ccc(Cl)cc3)c(C)nn2c1C	i	0.53
CCOC(=O)c1sc(-n2cccc2)nc1C	i	-0.51
O=C(CSc1nc(-c2ccc3c(c2)OCO3)nc2cc(=O)[nH]n12)NCCc1ccccc1	i	-1.06
Cc1nn(-c2ccccc2)c2sc(-c3noc(-c4ccccc4)n3)cc12	i	1.02
COc1ccc(Nc2n[nH]nc2C(=O)Nc2ccc(C)cc2Cl)cc1	i	-0.44
CC(Oc1cccc(Cl)c1)C(=O)N1CCN(c2cc(=O)n(C)c(=O)n2C)CC1 (stereo not given)	i	0.14
Cc1ccc2c(c1)Oc1cc(Cl)c(S(=O)(=O)N3CCc4ccccc4C3)cc1C(=O)N2	i	-0.39
O=C(Nc1cccc(-c2nnc(-c3ccccc3)o2)c1)Nc1ccc2c(c1)OCO2	i	0.09
CCC(C)(C)NC(=O)C1CCCN1S(=O)(=O)c1cc2c(cc1C)NC(=O)CO2 (stereo not given)	i	-0.12
Cc1ccc(-c2noc(-c3cccn(CC(=O)Nc4ccc(Br)cc4)c3=O)n2)cc1	i	0.24
CCSc1ncc(Cl)c(C(=O)NCCc2ccc(S(N)(=O)=O)cc2)n1	i	-0.02

Quoted at random: seven records from the list.
SMILES	Choline anaer gr	Choline anaer gr early
COc1ccccc1N1C(=O)N(c2ccc(F)cc2)C2CS(=O)(=O)CC21 (stereo not given)	i	-0.04
CC(=O)N(Cc1ccccc1)c1nc2ccccc2n(CC(=O)Nc2cccc(C)c2C)c1=O	i	0.08
CC(C)Oc1cc(O)c2c(=O)cc(-c3ccccc3)oc2c1	i	1.1
CCOC(=O)c1sc(-n2cccc2)nc1C	i	-0.51
CCN(CC)CCCNC(=O)C1CCN(C2=NS(=O)(=O)C(c3ccc(OC)cc3)=C2C)CC1	i	-0.25
CN1CCc2c(sc3c2CN(C(=O)NCc2ccc(F)cc2)C(c2ccc(F)cc2)c2cccn2-3)C1 (stereo not given)	i	0.21
COc1ccc(Nc2n[nH]nc2C(=O)Nc2ccc(C)cc2Cl)cc1	i	-0.44

Returning to the listing, repeating the 3 entries before the break.
SMILES	Choline anaer gr	Choline anaer gr early
CCC(C)(C)NC(=O)C1CCCN1S(=O)(=O)c1cc2c(cc1C)NC(=O)CO2 (stereo not given)	i	-0.12
Cc1ccc(-c2noc(-c3cccn(CC(=O)Nc4ccc(Br)cc4)c3=O)n2)cc1	i	0.24
CCSc1ncc(Cl)c(C(=O)NCCc2ccc(S(N)(=O)=O)cc2)n1	i	-0.02
Cc1ccccc1C1CC(=O)Nc2nc(N)[nH]c(=O)c21 (stereo not given)	i	-1.48
Cc1noc2c1C(c1cccc(Br)c1)C1=C(CC(c3ccccc3)CC1=O)N2 (stereo not given)	i	0.5
CCOc1ccc(NS(=O)(=O)c2c(C)sc(C)c2-c2cc(C(F)(F)F)on2)cc1	i	0.31
CCOC(=O)c1cc(NC(=O)c2ccc(C(C)(C)C)cc2)c(=O)n2c1oc1ccccc12	i	0.09
Cc1cccc(-c2nnc3c4c5c(sc4ncn23)CC(C)CC5)c1 (stereo not given)	i	0.01
O=C(NC1=NCCS1)c1c(-c2ccc(F)cc2)nc2n1CCS2(=O)=O	i	0.8
COc1ccccc1NC(=O)c1cc2c(COC(C)=O)cnc(C)c2oc1=O	i	1.06
COc1cccc(-c2cc(-c3nc(-c4cccc(OC)c4OC)no3)[nH]n2)c1	i	0.23
C=CCn1c(CN(c2ccc(F)cc2)S(C)(=O)=O)nnc1SCC(=O)N1CCCC1	i	-0.57
COc1ccc(/C=C\c2onc(C)c2S(=O)(=O)N2CCC(C(=O)Nc3ccc(Cl)cc3)CC2)cc1	i	-0.32
O=C(CCn1nnc2cc(S(=O)(=O)N3CCCC3)ccc21)NCc1cccnc1	i	-0.5
Cc1sc(C)c(S(=O)(=O)N2CCC(N3CCCCC3)CC2)c1-c1ccno1	i	-0.35
O=C(Cc1csc(NC(=O)NC2CCCC2)n1)NCCc1c[nH]c2ccccc12	i	-1.12
CCc1ccc(NC(=O)CCc2c(C)n(C)c3nc(-c4ccccc4)nn3c2=O)cc1	i	-0.58
Cc1nc2ccccc2n(CC(=O)NCCc2c[nH]c3ccccc23)c1=O	i	-1.04
CC(C)S(=O)(=O)c1ccc(NCCC2=CCCCC2)nn1	i	0.46
COc1ccc(C2CC(=O)C3=C(C2)Nc2ncnn2C3c2ccccc2F)cc1 (stereo not given)	i	0.44
Cc1cc(C)cc(-c2cc3nc(C)cc(N4CCC(C(=O)NC5CCCC5)CC4)n3n2)c1	i	0.13
Cc1nc(Cn2c(=O)oc3cc(S(=O)(=O)N4CCc5ccccc5C4)ccc32)no1	i	-1.14
CC(=O)N1CCc2cc(S(=O)(=O)NC(CC(C)C)C(=O)N3CCC(Cc4ccccc4)CC3)ccc21 (stereo not given)	i	0.35

Compound profiles (already shown). Screens in order: Choline anaer gr	Choline anaer gr early
Results for CCOc1ccc(NS(=O)(=O)c2c(C)sc(C)c2-c2cc(C(F)(F)F)on2)cc1 = i	0.31
Results for COc1ccc(/C=C\c2onc(C)c2S(=O)(=O)N2CCC(C(=O)Nc3ccc(Cl)cc3)CC2)cc1 = i	-0.32

(more compounds)
SMILES	Choline anaer gr	Choline anaer gr early
Cc1ccc2c(=O)cc(CSCC(=O)Nc3nnc(C)s3)[nH]c2c1	i	-1.14
COC(=O)c1ccc(C2C3=C(CC(C)(C)CC3=O)Nc3onc(C)c32)cc1 (stereo not given)	i	-0.72
N#CC1=CN(c2ccc(F)cc2)c2cc(F)ccc2S1(=O)=O	i	-1.07
CC(C)C(=O)Nc1noc2ccccc12	i	-1.6
COc1ccccc1N1CCN(c2ncnc3scc(-c4ccc(Cl)cc4)c23)CC1	i	-1.36
COc1ccc(NC(=O)c2ccc(-n3cnc4c(sc5nc(C)cc(C)c54)c3=O)cc2)cc1OC	i	-0.69
O=C(c1ccc(Br)cc1)N1CCc2nc(-c3ccccc3)sc2C1	i	-0.03

Screening data deposited in PubChem by ICCB-Longwood Screening Facility, Harvard Medical School.

An excerpt; the hit share may differ from the screen's.
